Bioassay records: PubChem, National Center for Advancing Translational Sciences (NCATS)
RE007 growth inh: less growth of the S. pombe RE007 Vpr strain. S. pombe RE007 Vpr strain, BacTiter-Glo ATP luminescence, 24 h; control for the full effect not named in the record. Potency, µM (titrated, usually from 92.2 µM), for inactives: at the top dose activity change, negative = less growth. 360,000 compounds, 0.21% hits; active = well fitted falling curve with a large enough effect; inconclusive = small, poorly fitted or top-dose-only effect; inactive = no such curve, though single readings can be large or run the other way;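 further: on the % scale 0 is the no-effect control and ±100 the full control effect; nearly all actives have a fitted effect of over 50% in size; the assay follows cell death caused by Vpr and the record does not say whether a fall means rescue or toxicity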
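Fission yeast strain RE007, carrying one chromosomally integrated HIV-1 vpr copy, was seeded at OD 0.01 in PMG+AL medium with 23 nL pinned compound. After 24 h at 30 °C and 99% humidity, viability was read by BacTiter-Glo luminescence.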
Cruzain inh Det: cruzain (T. cruzi) inhibition with detergent; Potency, µM, inactives show max response, negative = inhibition, most hits filed as inhibitors; 200,000 compounds, 0.43% hits; P25779; purified cruzain, Z-FR-AMC fluorescence, 0.01% Triton;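 further: plate controls were neutral wells for no effect and buffer without enzyme for full effect; nearly all actives have a fitted effect of over 40% in size; top concentration of the series not given in the record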
Target sequence (P25779 123-467 limits assumed): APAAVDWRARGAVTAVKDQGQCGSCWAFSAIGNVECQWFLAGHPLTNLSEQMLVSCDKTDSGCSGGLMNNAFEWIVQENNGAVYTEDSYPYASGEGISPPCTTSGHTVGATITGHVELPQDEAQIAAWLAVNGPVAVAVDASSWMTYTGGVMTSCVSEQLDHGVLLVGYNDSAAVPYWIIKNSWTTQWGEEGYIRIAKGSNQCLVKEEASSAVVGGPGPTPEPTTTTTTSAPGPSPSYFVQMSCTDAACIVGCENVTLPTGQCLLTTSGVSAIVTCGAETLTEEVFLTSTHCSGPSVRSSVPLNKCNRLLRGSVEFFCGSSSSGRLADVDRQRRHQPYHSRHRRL
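Compounds were screened in titration against cruzain (1.5 nM) with 0.01% Triton X-100 to counter colloidal aggregation. Activity was the AMC fluorescence increase over 60 s after adding 2 uM Z-FR-AMC at pH 5.5.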
Cruzain inh noDet: cruzain (T. cruzi) inhibition without detergent; 200,000 compounds, 2.3% hits; AID 1476; Potency, µM, for inactives: max response, negative = inhibition, hits mostly inhibitors; purified cruzain, Z-FR-AMC fluorescence, no detergent; P25779;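 further: plate controls were enzyme without inhibitor for no effect and buffer without enzyme for full effect; nearly all actives have a fitted effect of over 40% in size; top concentration of the series not given in the record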
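Detergent-free condition (0.00005% Triton X-100) in acetate buffer pH 5.5 with DTT. 1.5 nM enzyme and compound were pre-mixed 15 min, then 2 uM Z-FR-AMC substrate added; reaction progress from fluorescence change between first and third reads (60 s).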
LASV entry inh: inhibitors of Lassa virus binding or cell entry | Lassa virus pseudotype entry inhibition, cell reporter; control for the full effect not named in the record | Potency, µM (top dose mostly 37.9 µM), for the others: at the top dose activity change, negative = inhibition, actives largely listed as inhibitors | 300,000 compounds, 1.2% hits; active means well fitted inhibition curve with a large enough effect; inconclusive means small, poorly fitted or top-dose-only effect, or effect the other way; inactive means flat fitted curve, though single readings scatter; tested in HEK293 cells; further: on the % scale 0 is the no-effect control and ±100 the full control effect; nearly all actives have a fitted effect of over 50% in size; luciferase read-out
StopGo reporter: lowers the luciferase signal of an FMDV 2A StopGo reporter. Potency, µM (highest dose often 57.9 µM), without a hit: at the top dose signal change, negative = less light. 410,000 compounds, 1.2% hits. human cells with a luciferase reporter of 2A StopGo recoding; control for the full effect not named in the record; active = well fitted falling curve with a large enough effect; inconclusive = small, poorly fitted or top-dose-only effect; inactive = no such curve, though single readings can be large or run the other way; tested in HEK293T cells; further: on the % scale 0 is the no-effect control and ±100 the full control effect; nearly all actives have a fitted effect of over 45% in size; luciferase light after 4 h
SARS PLpro yeast: inhibitors of SARS-CoV papain-like protease in yeast; Potency, µM (titrated, usually from 32.9 µM), inactives show at the highest dose activity, positive = growth rescue; 330,000 compounds, 0.19% hits; S. cerevisiae expressing SARS-CoV PLpro, growth rescue; control for the full effect not named in the record; active means well fitted rising curve with a large enough effect; inconclusive means small, poorly fitted or top-dose-only effect; inactive means no such curve, though single readings can be large or run the other way; further: 0% is about no effect; nearly all actives have a fitted effect of over 55% in size; growth read by luminescence after 48 h
NS1 inh: inhibitors of influenza NS1 protein function. S. cerevisiae slowed by influenza A NS1, growth recovery by OD600. Potency, µM (doses to about 46.1 µM), inactives show at the highest dose activity, positive = more growth. 270,000 compounds, 0.4% hits. AID 2326; active means well fitted rising curve with a large enough effect; inconclusive means small, poorly fitted or top-dose-only effect; inactive means no such curve, though single readings can be large or run the other way; further: nearly all actives have a fitted effect of over 50% in size
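S. cerevisiae expressing influenza A NS1, grown in glucose, washed, then diluted 1:100 into pH 6.0 -URA galactose medium with 23 nl compound. Growth recovery read as OD600; NS1-free strain serves as control.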
Marburg entry inh: inhibitors of Marburg virus binding or cell entry | Marburg virus pseudotyped entry inhibition, cell reporter; control for the full effect not named in the record; about a third of the inactives were read at about 46 µM | Potency, µM (top dose mostly 37.8 µM), without a hit: top-dose activity change, negative = inhibition, hits mostly inhibitors | 300,000 compounds, 1.8% hits | AID 540276; active = well fitted inhibition curve with a large enough effect; inconclusive = small, poorly fitted or top-dose-only effect, or effect the other way; inactive = flat fitted curve, though single readings scatter; tested in HEK293 cells; about a fifth of its hits are not listed in these tables; further: on the % scale 0 is the no-effect control and ±100 the full control effect; luciferase read-out
Active calls of the source: *; ? = inconclusive; / = not tested or not shown; & = joins results of further samples; [ ] = remark or other dose. Unless noted, the call rests on the fitted dose curve; in most records, active means well fitted curve in the direction sought with a large enough effect; inconclusive means small, poorly fitted or top-dose-only effect, or another doubt; inactive means no such curve, though single readings can be large; an effect the other way counts as inactive or inconclusive. Potency means the concentration at half of the fitted maximal effect.

SMILES	RE007 growth inh	Cruzain inh Det	Cruzain inh noDet	LASV entry inh	StopGo reporter	SARS PLpro yeast	NS1 inh	Marburg entry inh
Cc1ccc(CN2CCN(C(=O)c3ccco3)CC2)cc1	-17%	0.3%	2%	1%	-18%	11%	6%	4%
COc1cccc(NC(=O)COC(=O)C2C3CC4OC(=O)C2C4C3)c1 (stereo not given)	13%	/	/	10%	35%[activator]	-2%	4%	-4%[46.1 µM]
COc1cc(OC)cc(C(=O)N[C@H](C(=O)NNC(=O)c2ccc(Br)cc2)C(C)C)c1	-7%	/	/	-10%[46.1 µM]	2%	/	/	-4%[46.1 µM]
COc1ccccc1C(=O)NNC(=O)c1ccc(Br)cc1	-27%	/	/	9%	0%	1%	-2%	0%
Cc1ccc(OCC(=O)NCc2ccc3c(c2)OCO3)c([N+](=O)[O-])n1	2%	/	/	-21%	-7%	-2%	1%	1%
CC(C)(CN)CC(=O)O	7%	/	/	/	?	-1%	5%	/
O=c1[nH]cc(S(=O)(=O)NCc2ccccc2)c(=O)[nH]1	-2%	/	/	/	-2%	-2%	-6%	/
CCC1CCCCN1CCCNC(=O)C1CCCN(S(=O)(=O)N2CC(C)CC(C)C2)C1 (stereo not given)	0%	/	/	/	-10%	11%	1%	/
CC(=O)c1cccc(NC(=O)c2cnn(-c3ccccc3)c2C)c1	-7%	/	/	/	7%	1%	-43%	/
CCOc1ccc(N2CC(O)(c3cccs3)[N+]3=C2CCCC3)cc1 (stereo not given)	-20%	/	/	-1%	-16%	1%	/	5.6µM*
COc1ccccc1NC1=C(Cl)C(=O)N(C2CCCCC2)C1=O	10%	-6.5%	-6%	1%	-15%	-38%	-30%	?
COc1ccc(S(=O)(=O)Nc2cccnc2)cc1OC	-12%	/	/	-17%[46.1 µM]	38%[activator]	-3%	7%	14%[46.1 µM]
CC(O)c1c(OCc2ccccc2)ncnc1OCc1ccccc1 (stereo not given)	-12%	-1.5%	-3%	5%	?	-24%	-46%	13%
CN(C)C(CNC(=O)C1CCN(S(=O)(=O)c2ccc(Cl)cc2)CC1)c1ccccc1 (stereo not given)	-25%	/	/	-4%	31%[activator]	2%	-4%	?
COc1ccccc1N(CC(=O)NCc1ccccc1)C(=O)CCC(=O)Nc1nccs1	-21%	/	/	?	10%	4%	-3%	16%
CCN(CC)C(=O)CSc1nc(N)c2c3c(sc2n1)CC(C)CC3 (stereo not given)	15%	-8.8%	?	?	5%	5%	-12%	?
O=C(NNc1ncccc1Cl)c1c(Cl)cccc1Cl	-15%	/	/	7%	-4%	2%	/	0%
CCn1c2ccccc2c2cc(NC(=O)COc3cc(C)c(Cl)c(C)c3)ccc21	/	-0.8%	?	13%[46.1 µM]	-1%	/	/	?
Cc1ccc(S(=O)(=O)N(CCC(=O)NCC(c2ccccc2)N(C)C)c2ccccc2)cc1 (stereo not given)	?	/	/	-4%	2%	/	/	?
CCC(C(=O)NCc1cc(OC)ccc1OC)n1nc(C)c2sc3ccccc3c2c1=O (stereo not given)	/	-1.0%	9%	8%[46.1 µM]	-34%	/	/	-7%[46.1 µM]
CCc1ccc(CN(C)C(=O)CCc2nnc(Cc3cccc(C)c3)o2)nc1	-9%	/	/	5%[46.1 µM]	13%	1%	-2%	6%[46.1 µM]
CCc1nnc(NC(=O)CCC(=O)NCCc2ccccc2)s1	-2%	/	/	/	15%	10%	-3%	/
COc1cccc2sc(N(CCCN(C)C)C(=O)c3sc4ccccc4c3Cl)nc12	11%	-13%	13%	-23%	-25%	-4%	-4%	?
COc1ccc(S(=O)(=O)NCc2csc(C)n2)cc1OC	2%	/	/	/	3%	5%	1%	/
Cc1ccc(SCc2nc(-c3ccccn3)no2)cc1	-1%	1.5%	-4%	-4%	-3%	-3%	-54%	7%
Cc1ccc(CNC(=O)c2nc(SCc3cccc(C)c3)ncc2Cl)cc1	/	-2.2%	-4%	-4%[46.1 µM]	0%	/	/	-6%[46.1 µM]
COc1ccc(NC(=O)COC(=O)Cc2coc3cc(OC)ccc23)c(OC)c1	-3%	/	/	-1%	2%	-11%	/	-9%
CCCN(CCC)CCNC(=O)C1(O)c2ccccc2NC(=O)N1c1cccc(OC)c1 (stereo not given)	18%	/	/	/	-6%	-2%	3%	/
CCNc1nc(-c2cc(C)n(Cc3ccco3)c2C)cs1	-23%	/	/	8%	35%[activator]	0%	0%	?
Cc1cc(OCC(=O)N2CCN(c3ncccn3)CC2)ccc1Cl	?	/	/	4%	-24%	0%	-25%	21%
COc1cc(NC(=O)c2cccc([N+](=O)[O-])c2)ccc1NC(=O)c1ccco1	12%	/	/	5%	5%	4%	/	2%[46.1 µM]
O=C(Nc1ccc(N2CCN(C(=O)c3ccc(Cl)cc3)CC2)cc1)c1ccc([N+](=O)[O-])o1	4%	/	/	-29%[46.1 µM]	?	-1%	-4%	?
COc1ccc(-c2[nH]c3ccccc3c2SCCNC(=O)c2cc3ccccc3oc2=O)cc1	11%	0.1%	-78%	-4%	1%	7%	10µM*	25%
Cc1ccc(C2/C(=C(/O)c3ccc(OC(C)C)cc3)C(=O)C(=O)N2CCN2CCOCC2)cc1 (stereo not given)	1%	-4.0%	?	-6%	0%	-2%	-8%	0%&0%
O=C(NCCc1csc2nc(-c3ccccc3F)nn12)c1ccccc1C(F)(F)F	/	-8.4%	-13%	-6%[46.1 µM]	-13%	/	/	/
O=C(Nc1nnc(-c2ccc3c(c2)CCCC3)o1)c1ccccc1	-27%	-7.8%	1%	/	14%	-20%	-36%	/
CC(C)/C=C1\CC/C(=C\c2ccc(N(C)C)cc2)C1=O	?	-4.1%	-11%	2%	-4%	-14%	5%	5%
O=C(NC1CCCCC1)C(c1ccncc1)N(C(=O)c1csnn1)c1ccc(F)cc1 (stereo not given)	8%	/	/	-1%	-20%	0%	13%	-1%[46.1 µM]
O=C(CSc1nnc(-c2cccc(S(=O)(=O)N3CCCC3)c2)n1-c1ccccc1)Nc1cccc(C(=O)O)c1	-9%	/	/	/	-15%	0%	-10%	/
CCOC(=O)C1CCN(C(=O)COC(=O)Cc2ccc(Cl)cc2)CC1	5%	/	/	/	5%	-1%	-4%	/
COc1cc(C(=O)N2CCN(c3cc(Cl)ccc3Cl)CC2)cc(OC)c1OC	-5%	-4.2%	?	-7%	-17%	-8%	-35%	-26%&-26%
O=C(CSc1nnc(-c2ccncc2)n1-c1ccccc1)NC1CC1	3%	/	/	16%	-15%	-1%	9%	16%
CCS(=O)(=O)Nc1cccc(C2=NN(S(C)(=O)=O)C(c3ccccc3)C2)c1 (stereo not given)	3%	/	/	-4%	-1%	-3%	/	-3%[46.1 µM]
CCN(CC)S(=O)(=O)c1ccc(Br)c(OC)c1	-6%	-7.4%	-4%	-12%	-5%	-8%	-12%	-2%
O=C(Oc1c(CN2CCOCC2)cc(Cl)c2cccnc12)c1ccc(F)cc1	-21%	2.3%	-4%	?	-21%	-7%	-2%	10µM*
COc1ccc(CCNC(=O)c2ccc3nc(-c4ccco4)c(-c4ccco4)nc3c2)cc1OC	-5%	14µM*	-6%	8.2µM*	16µM*	-9%	17%	10µM*
O=C(NCCCN1CCOCC1)c1ccc(Sc2ccc(F)cc2)c([N+](=O)[O-])c1	2%	1.8%	6%	6%	2%	1%	-1%	0%
CCCc1cc(N2CCOCC2)n2ncc(-c3ccccc3)c2n1	9%	/	/	/	-2%	1%	-3%	/
COc1cc(CCC(=O)OCC(=O)Nc2ccc(C)cc2Cl)cc(OC)c1OC	-9%	/	/	16%[46.1 µM]	-8%	-6%	-8%	8%[46.1 µM]
Cc1sc(NC(=O)Nc2ccccc2)c(C(N)=O)c1C	3%	/	/	-15%[46.1 µM]	40%[activator]	-1%	-1%	-29%[46.1 µM]
Cc1ccc(-c2noc(CN(C3CCCCC3)S(=O)(=O)c3ccc(Cl)cc3)n2)cc1	/	-1.8%	-1%	14%[46.1 µM]	-9%	/	/	-11%[46.1 µM]
COc1cccc(CNc2ccc(N3CCCCC3)cc2)c1OC	0%	0.2%	-11%	?	23%	-7%	?	?
CC(C)(C)c1ccc(S(=O)(=O)N2CCN(c3ncccn3)CC2)cc1	7%	/	/	-13%	-8%	0%	1%	-6%[14.2 µM]
COC(=O)N/N=C/c1cc(C)n(-c2cccc3ccccc23)c1C	25%	-6.7%	-12%	?	-20%	-1%	2%	-10%
COc1ccc2nc(C)cc(Nc3cccc(C(=O)O)c3)c2c1	-5%	/	/	/	-16%	1%	-4%	/
Cc1ccc(NC(=O)Cn2c(=O)n(Cc3ccc4c(c3)OCO4)c(=O)c3ccccc32)cc1	/	-2.6%	5%	4%[46.1 µM]	-17%	/	/	-20%[46.1 µM]
Cn1c(Cn2c(=O)sc3ccccc32)nnc1SCC(=O)NCc1ccco1	-3%	-3.3%	-4%	/	0%	-15%	?	/
O=[N+]([O-])c1ccc(Sc2ccccn2)nc1	-4%	/	/	11%[46.1 µM]	-2%	0%	2%	-1%[46.1 µM]
O=C(NC(Cc1c[nH]c2ccccc12)C(=O)Nc1ccc(F)c([N+](=O)[O-])c1)c1cccs1 (stereo not given)	-24%	-5.1%	-24%	0.58µM*	-24%	26%	10%	0.79µM*
COc1ccc(C(CNC(=O)c2cccc(NS(=O)(=O)c3ccccc3)c2)N(C)C)cc1 (stereo not given)	-22%	/	/	-2%	2%	1%	10%	?
CC1=Nn2c(nnc2-c2cc(-c3ccccc3)n[nH]2)SC1	-3%	-0.5%	6%	-8%	?	-25%	4%	6%
COc1ccc(C)cc1NS(=O)(=O)c1ccc2c(c1)NC(=O)C(C)S2 (stereo not given)	-7%	/	/	/	27%	4%	9%	/
